MgrA DNA FP: S. aureus MgrA activity modulators, primary screen, biochemical, S. aureus Newman, fluorescence polarization; inhibition, %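 (about 10 µg/mL by stock and volumes)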; MgrA-DNA binding; 84,000 compounds, 0.13% hits;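 active = above 50% in either of two replicates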;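 also: 0% = protein plus DNA without compound and 100% = DNA alone without protein; higher means less MgrA bound to DNA so lower polarization; one replicate is shown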
Sa helicase inh: inhibitors of S. aureus replicative helicase, primary screen, biochemical, fluorescence unwinding readout | replicative DNA helicase (DnaC/DnaB), Staphylococcus aureus | purified S. aureus helicase, fluorescence unwinding assay; about half of the hits fall short of the stated cut | inhibition, %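 (tested at about 80 µM)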 | 120,000 compounds, 0.05% hits | AID 485395, 2010;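 active = both duplicates at 50% or more, or one of them with a favoured structure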;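 also: 0% = mean of negative control wells and 100% = mean of positive control wells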
* marks the source's active call; other numbers are inactive results; nt = no result given; & = joins results of further samples. Not all compounds are listed; count on the stated rates, not on these rows.

nr | SMILES | MgrA DNA FP | Sa helicase inh
1 | CC1=C(COc2c3occc3cc3ccc(=O)oc23)CC(C)(C)CC1 | nt | -7
2 | CCS(=O)(=O)c1ccc(OC)c(N=NC2=C(O)CC(C)(C)CC2=O)c1 | nt | -16
3 | CN/C=C/C(=O)C(F)(F)F | nt | -7
4 | c1ccc(COc2cccc(CNn3cnnc3)c2)cc1 | 3.0 | 13
5 | COCCn1c(Cc2ccccc2)nnc1SCc1nnc(-c2ccccc2)o1 | nt | 3
6 | Cc1c(Cl)cccc1-n1ncc(C(=O)O)c1C1CCN(C(=O)OC(C)(C)C)CC1 | nt | 24
7 | O=C(O)/C=C/c1ccc(OC(F)(F)F)cc1 | nt | -3
8 | Cc1ccc(N2C(=O)CC(C(=O)Nc3cccc(-n4cnnn4)c3)C2c2cccs2)cc1 (stereo not drawn) | nt | -9
9 | CCN(CC(=O)Nc1cc(Cl)ccc1C)CC(=O)NC1CC1 | nt | 29
10 | NCCCOCc1ccccc1 | nt | 2
11 | O=S(=O)(c1ccc2oc3ccc(S(=O)(=O)N4CCCC4)cc3c2c1)N1CCCC1 | nt | 29
12 | CC(C)N(Cc1ccccc1)C(c1ccc(F)cc1)c1c(O)[nH]c(=O)[nH]c1=O (stereo not drawn) | nt | 20
13 | CCNC(=S)N/N=C/c1cc(OC)c(OC)c(OC)c1 | nt | 15
14 | N=C(N=C(N)N)N1CCc2ccccc21 | -4.1 | 11
15 | Cc1ccccc1-c1noc(-c2cc3cc(C(C)(C)C)cc(O)c3oc2=O)n1 | nt | 9
16 | Cc1ccc(S(=O)(=O)N2CCC(C(=O)O)CC2)c(C)c1 | nt | -6
17 | CC(=O)Nc1ccc2c(COC(=O)C3CC3C)cc(=O)oc2c1 (stereo not drawn) | nt | -2
18 | Cc1cccc2oc(-c3ccc(N=Cc4cc(C(=O)O)ccc4O)cc3)nc12 | 14 | -33
19 | CC1CCCCN1C(=O)c1cc2c(=O)oc3ccccc3c2s1 (stereo not drawn) | nt | 6
20 | COc1cccc(Nc2nc(-c3ccccc3)cs2)c1 | 2.1 | 2
21 | C(=N\C(/N=C/c1ccco1)c1ccco1)/c1ccco1 | 9.2 | 0
22 | Cc1cc(NC(=O)CN2C(=O)CC(c3ccco3)Sc3ccccc32)no1 (stereo not drawn) | nt | 5
23 | O=C(O)c1cccnc1C(=O)O | -1.8 | nt
24 | O=[N+]([O-])c1cc(Cl)c(-n2cccc2)cc1Oc1ccc(Cl)cc1 | -3.2 | nt
25 | O=C(CSc1ccc(-c2ccccc2)nn1)N1CCCC1 | -2.6 | 9
26 | CC(C)(C)C1CCc2sc(-c3nnc(CN4CCN(C(=O)c5cccs5)CC4)o3)cc2C1 (stereo not drawn) | nt | -14
27 | Cc1ccc(SCC(=O)Nc2ccc(C)cc2C)cc1 | 0.6 | -3
28 | CN(C)CCNc1ncnc2sc(-c3ccccc3)cc12 | nt | 23
29 | CSc1ccc(C2N[C@@H](C(=O)O)C(C)(C)S2)cc1 (stereo partly drawn) | -5.3 | nt
30 | Cc1cn2c(CO)c(C)nc2s1 | nt | -13

Complete entries as entered above.
`Cc1ccc(SCC(=O)Nc2ccc(C)cc2C)cc1` in the list: MgrA DNA FP = 0.6; Sa helicase inh = -3
`COc1cccc(Nc2nc(-c3ccccc3)cs2)c1` in the list: MgrA DNA FP = 2.1; Sa helicase inh = 2
`Cc1ccccc1-c1noc(-c2cc3cc(C(C)(C)C)cc(O)c3oc2=O)n1` in the list: MgrA DNA FP = nt; Sa helicase inh = 9

Other results follow:
nr | SMILES | MgrA DNA FP | Sa helicase inh
31 | CCN1C(=O)C2CC(C)=C(C)CC2C1=O (stereo not drawn) | 3.2 | 2
32 | COC(=O)c1ccc(C2C(C#N)=C(C)NC(C)=C2C(=O)Nc2ccccc2)cc1 (stereo not drawn) | nt | -12
33 | CCCN(CCC)C(=O)c1c(NC(=O)c2cccs2)sc2c1CCC(C)C2 (stereo not drawn) | nt | -26
34 | O=C(CC(NCCN1CCOCC1)C(=O)O)Nc1ccc2ccccc2c1 (stereo not drawn) | nt | 2
35 | O=C(COC(=O)CC1CCCC1)NC1CCCCCC1 | 2.0 | 16
36 | Cc1cccc(Nc2nc3nonc3nc2Nc2cccc(C)c2)c1 | -1.6 | nt
37 | O=C(CNc1cccc(Cl)c1)c1ccc(Cl)cc1 | 0.4 | nt
38 | Cc1cc(C)n2nc(SC(C)C(=O)NCc3ccccc3Cl)nc2n1 (stereo not drawn) | 1.1 | 2
39 | N#CC1=C(SCC(=O)Nc2ccc(Br)cc2)NC(=O)CC1c1ccccc1[N+](=O)[O-] (stereo not drawn) | 4.3 | nt
40 | COc1ccc(Br)c(-c2nc(N)nc(NC3CC3)n2)c1 | nt | 16
41 | O=C(COc1cccc(-n2cnnn2)c1)NCC1CCCCC1 | nt | -7
42 | Cc1ccc(C(=O)N/C(=C/c2ccc3c(c2)OCO3)C(=O)O)cc1 | -1.9 | 7
43 | CCOC(=O)CCSc1nc(C)c2ccccc2n1 | 0.5 | 4
44 | O=C(CO/N=C/c1ccco1)N1N=C2/C(=C/c3cccs3)CCCC2C1c1cccs1 (stereo not drawn) | nt | 10
45 | CCOC(=O)Cn1cnc2sc(C(=O)OCC)c(C)c2c1=O | 1.4 | 1
46 | CCn1c(=O)c2cc(S(=O)(=O)NC3CCCCC3)ccc2n(CC)c1=O | -1.4 | -16
47 | Cc1cc(C)n(-c2ccc(N3CCSCC3)nn2)n1 | 1.4 | nt
48 | CCOC(=O)/C(C#N)=C1/CCCN1 | 0.7 | 10
49 | COc1cc(C(=O)NN)ccc1OC(C)C | nt | -10
50 | CCOC(=O)c1ccccc1C(=O)c1ccc(N(C)C)cc1 | -1.9 | nt
51 | O=c1[nH]c(N2CCCCC2)nc2ncn(Cc3ccccc3)c12 | nt | 10
52 | CCC(C)c1ccc(NC(=O)C2CCCN(c3ncccn3)C2)cc1 (stereo not drawn) | 0.5 | 6
53 | O=C(c1ccccn1)c1conc1-c1c(Cl)cccc1Cl | 0.7 | nt
54 | COCCN1C(=O)c2ccccc2C(C(=O)NCCc2cccc(C)c2)C1c1c[nH]c2ccccc12 (stereo not drawn) | 0.2 | 7
55 | C=CCN(C(=O)c1cc2cc3cc(OC)ccc3nc2s1)c1ccccc1 | -1.1 | 7
56 | COC(C(=O)Nc1ccc(Cl)cn1)c1ccccc1 (stereo not drawn) | -3.2 | -1
57 | CN(C)CCn1c(NC(=O)c2ccc(Cl)cc2)nc2ccccc21 | -0.2 | nt
58 | CCN(C#N)c1nc(N(C)C)nc(N2CCOCC2)n1 | 1.2 | -21
59 | CCOC(=O)C1=CN(C)C=C(C(=O)OCC)C1c1cc(Br)c(O)c(OC)c1 | -0.3 | 3
60 | O=C1c2ccccc2-c2nn(C(=O)Cc3ccccc3)c3cccc1c23 | -0.6 | -5

Entries from the list above containing two or more sulfur atoms (five):
nr | SMILES | MgrA DNA FP | Sa helicase inh
11 | O=S(=O)(c1ccc2oc3ccc(S(=O)(=O)N4CCCC4)cc3c2c1)N1CCCC1 | nt | 29
26 | CC(C)(C)C1CCc2sc(-c3nnc(CN4CCN(C(=O)c5cccs5)CC4)o3)cc2C1 (stereo not drawn) | nt | -14
29 | CSc1ccc(C2N[C@@H](C(=O)O)C(C)(C)S2)cc1 (stereo partly drawn) | -5.3 | nt
33 | CCCN(CCC)C(=O)c1c(NC(=O)c2cccs2)sc2c1CCC(C)C2 (stereo not drawn) | nt | -26
44 | O=C(CO/N=C/c1ccco1)N1N=C2/C(=C/c3cccs3)CCCC2C1c1cccs1 (stereo not drawn) | nt | 10

(next part)
nr | SMILES | MgrA DNA FP | Sa helicase inh
61 | O=C1Cc2ccccc2C(=O)N1Cc1ccco1 | 1.8 | -22
62 | COc1ccc(C2=NN(CCC(=O)NCc3ccccc3)C(=O)CC2)cc1 | nt | 6
63 | O=CNC1CCCc2c1[nH]c1ccccc21 (stereo not drawn) | 2.2 | -5
64 | O=CN1CCN(Cc2cccc(Cl)c2)CC1 | -1.3 | -3
65 | CCOC(=O)c1c(C)oc(-c2ccccc2)c1S(=O)(=O)N1CCN(c2ncc(C(F)(F)F)cc2Cl)CC1 | nt | -7
66 | CCOC(=O)c1c(C)[nH]c(C(=O)OCc2nc(N)nc(Nc3ccccc3C)n2)c1C | nt | -3
67 | Cc1ccc(-n2nc(C)c(C(=O)O)n2)cc1 | -4.8 | nt
68 | CCc1ccccc1NC(=O)CCSc1nc2n[nH]c(C)c2c(=N)n1-c1cccc(Cl)c1 | -0.8 | 12
69 | CC(=O)NC(=S)Nc1ccccc1N1CCN(C(=O)c2ccccc2)CC1 | 0.2 | -1
70 | O=C1CSC(c2cn(-c3ccccc3)nc2-c2ccccc2)N1CCO (stereo not drawn) | -1.2 | 33
71 | O=C(c1cccc2c1NC(c1ccc(Br)cc1)C1CC=CC21)N1CCCC1 (stereo not drawn) | 1.9 | nt
72 | CCOC(=O)c1cc(-c2ccc(Cl)s2)nn1C(C)=O | 2.2 | nt
73 | Cc1ccc(O)c(NC(=O)c2ccc(Br)o2)c1 | 7.7 | 4
74 | O=C(NCc1ccco1)c1nc2c(nnn2Cc2cccc(Cl)c2)c(=O)[nH]1 | 18 | 13
75 | CCOc1ccc2[nH]c(=O)c(CN(C(C)=O)C3CCCC3)cc2c1 | -2.4 | 13
76 | O=C(Cc1n[nH]c(=O)c2ccccc12)NCc1ccccc1 | 2.3 | 2
77 | CC(=O)N(c1ccc(N(C(C)=O)S(=O)(=O)c2cccs2)cc1)S(=O)(=O)c1cccs1 | nt | 31
78 | CCOC(=O)c1ccc(N2C(=O)CCC2=O)cc1 | -1.3 | nt
79 | O=C(Cn1cnc2ccccc2c1=O)OCC(=O)c1c[nH]c2ccccc12 | nt | 19
80 | COCCN1Cc2cccc(C(=O)Nc3ccc4nc(-c5cccnc5)[nH]c4c3)c2C1=O | nt | 29
81 | Cc1sc2ccccc2[n+]1C | 6.1 | nt
82 | COc1ccc(-c2[nH]ncc2C(=O)NCCCc2ccccc2)cc1 | 1.9 | 13
83 | CCCC(=O)N=C1SC2CS(=O)(=O)CC2N1Cc1ccccc1 (stereo not drawn) | nt | -16
84 | O=C(NCc1ccccc1Cl)c1ccccc1 | nt | 12
85 | O=c1c(Oc2ccc(F)cc2)coc2cc(O)cc(O)c12 | nt | -1
86 | CC1C=CCC2C(=O)N(c3ccc(OC(=O)c4ccco4)cc3)C(=O)C12 (stereo not drawn) | -0.2 | 16
87 | CCOC(=O)CNc1n[nH]c(=O)[nH]c1=O | -1.9 | nt
88 | Cc1nnc(NC(=O)CCCN2C(=O)/C(=C/c3cccs3)SC2=S)s1 | -1.4 | 2
89 | COc1ccc2nc(N3CCCCC3)c(/C=C3\N=C(c4ccccc4)OC3=O)cc2c1 | 1.2 | 9
90 | Oc1c(C2=NCCNC(C(F)(F)F)=C2)ccc2ccccc12 | 0.6 | 18
91 | COc1cc(OC)c(NC(=O)Cc2noc3ccc(C)cc23)cc1Cl | 0.6 | -3
92 | COc1ccc(CCNC(=O)CNCC2CCCO2)cc1OC (stereo not drawn) | 12 | 10
93 | Cc1nn(-c2ccccc2)c2sc(C(=O)N(Cc3ccco3)C(C)C(=O)NC3CCCCC3)cc12 (stereo not drawn) | 1.2 | 14
94 | O=C(COC(=O)c1ccc(Br)o1)NC12CC3CC(CC(C3)C1)C2 | nt | -9
95 | COC(=O)c1cc(NC(=O)COc2ccc3c(c2)OCO3)cc(C(=O)OC)c1 | nt | 30
96 | CCC(C(=O)NC1CCCC1)n1c(SCc2ccc(C)cc2)nc2ccncc21 (stereo not drawn) | -0.8 | 3
97 | N#CC(C#N)=C(Nc1ccc(Br)cc1)SCc1ccc(F)cc1 | 0.6 | -13
98 | O=C(Cc1ccc(S(=O)(=O)N2CCCCC2)cc1)Nc1cccnc1 | nt | -1
99 | O=C(O)c1ccc(NC(=O)C2C3C=CC(C3)C2C(=O)O)cc1 (stereo not drawn) | 4.2 | 11
100 | CCc1cc(-c2[nH]ncc2-c2ccc(OC)cc2)c(O)cc1OC | nt | 0
101 | c1cncc(CNc2ccc3nncn3n2)c1 | nt | 5
102 | CC(C)(C)NC(=O)Nc1c2ccccc2nc(=O)n1Cc1ccccc1 | nt | 8
103 | O=C(Nc1ccccc1)c1nc(-c2ccccc2)n(-c2ccccc2)n1 | -0.6 | nt
104 | Cc1cc2nc(-c3ccc(Cl)nc3)[nH]c2cc1C | -0.3 | nt
105 | Cc1cc(C2=NNC(=NCC3CCCO3)SC2)c(C)n1-c1ccc(OC(F)F)cc1 (stereo not drawn) | nt | -25
106 | CCOC(=O)c1c(NC(=O)C2(S(=O)(=O)c3ccccc3)CC2)sc(C)c1C | nt | 3
107 | CCOc1ccccc1OC(=O)c1ccccc1 | nt | 5
108 | COc1cc2c(cc1OC)CN(C(=O)CCc1ccccc1)CC2 | nt | 0
109 | O=C(COC(=O)c1cc(Cl)nc(Cl)c1)NC(c1ccccc1)c1ccccc1 | -2.8 | -5
110 | COC(=O)c1ccc(S(=O)(=O)NCc2ccco2)o1 | 0.8 | nt
111 | COc1ccc2c(=S)c(-c3csc(C)n3)c(C)oc2c1 | nt | 5
112 | COc1ccc(Cc2nc3c4c5c(sc4ncn3n2)CCCC5)cc1OC | -1.4 | nt
113 | CNCCC=C1c2ccccc2CCc2ccccc21 | 6.3&0.3 | nt
114 | Cc1nc2c(n1C1CCCCC1)C(=O)c1ccccc1C2=O | nt | -6
115 | O=C(Cn1c(SCc2cccc(C(F)(F)F)c2)nc2ccncc21)NCCC1=CCCCC1 | -0.8 | 2
116 | O=C(CCSCc1ccc(Cl)cc1)N1CCN(c2ccccc2)CC1 | 1.1 | 10
117 | COc1ccc(N2CCN(C(CNS(=O)(=O)c3cccs3)c3cccnc3)CC2)cc1 (stereo not drawn) | nt | 2
118 | CC(C)CCN=CC1=C(O)CC(c2ccccc2)CC1=O (stereo not drawn) | 1.6 | 5
119 | COC(=O)C1=C(c2ccccc2)S(=O)(=O)CCN1C(C)=O | -11 | 5

Screening data deposited in PubChem BioAssay by ICCB-Longwood Screening Facility, Harvard Medical School.
